NPYLR7 ag: mosquito NPYLR7 agonism; HEK293T NPYLR7/Galpha15, GCaMP6s calcium fluorescence; activation, % at 10 µM; 0.15% of 270,000 active; in the data active = activation above about 40%;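 note: 0% = vehicle and 100% = reference agonist at the receptor; some compounds past the cut are filed as inactive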
NPYLR7 ag max-min: second read-out of NPYLR7 ag, no call of its own (marks repeat the call); activation, %; measured here: Max-Min RFU normalised activation; some inactives read as strong as hits;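 span of the calcium signal over five minutes; 0% = vehicle and 100% = native peptide agonist; compound fluorescence can raise it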
Active calls of the source: *.

O=C(CC(=O)N1CCOCC1)N1CCOCC1 was read as NPYLR7 ag 13.2 and NPYLR7 ag max-min 10.2.
`COCCN1CCCC(O)(CN2CCC(C(N)=O)CC2)C1=O` (stereo not drawn) gave NPYLR7 ag 4.3 and NPYLR7 ag max-min 4.1.
O=S(=O)(c1ccc(F)cc1)N1CCC(c2nc(-c3ccc(F)c(F)c3)no2)CC1 was read as NPYLR7 ag 26.7 and NPYLR7 ag max-min 13.1.
For CCOC(=O)N1CCN(C(=O)c2csc(CSc3nnc(-c4ccncc4)n3-c3cccc(C(F)(F)F)c3)n2)CC1 the results were NPYLR7 ag -11.4 and NPYLR7 ag max-min -9.9.
Screening CC1CC(C)(C)CC2(C1)NC(=O)N(CC(O)COCc1ccccc1Cl)C2=O (stereo not drawn) returned NPYLR7 ag 8.4 and NPYLR7 ag max-min 2.1.
Screening C=CCn1cc(CN2CCC(c3nc(-c4ccccc4)no3)CC2)c(C)n1 returned NPYLR7 ag -6.7 and NPYLR7 ag max-min -11.6.
`C=CCSc1nnc2c(n1)[nH]c1ccccc12` gave NPYLR7 ag 13.3 and NPYLR7 ag max-min 7.4.
`Fc1ccc(Nc2nc3cc(Cl)ccc3o2)cc1Cl` gave NPYLR7 ag -1.7 and NPYLR7 ag max-min -3.5.
Nc1nc(N)nc(CSCc2ccccc2C(F)(F)F)n1 was read as NPYLR7 ag 6.1 and NPYLR7 ag max-min 2.4.
Screening CC1CCC(NC(=O)CN2CC(C)OC(c3ccccc3)C2)CC1 (stereo not drawn) returned NPYLR7 ag 4.0 and NPYLR7 ag max-min 0.7.
`COCc1c(Br)c(C)nc(OCC(=O)N/N=C\c2c3ccccc3cc3ccccc23)c1C#N` gave NPYLR7 ag 30.0 and NPYLR7 ag max-min 35.8.
For C=CCN1C(=O)C2C3C=CC(C2C1=O)C1C2C(=O)N(CC=C)C(=O)C2C31 (stereo not drawn) the results were NPYLR7 ag -10.5 and NPYLR7 ag max-min -15.4.
Screening O=C1CCC2(CCN1)CCN(C(=O)c1cnn(Cc3ccccc3)c1)CC2 returned NPYLR7 ag 1.4 and NPYLR7 ag max-min -3.4.
For COCCCN(CC(=O)Nc1cc(C(C)(C)C)nn1-c1ccc(C)cc1C)C(=O)NC1CCCCC1 the results were NPYLR7 ag -1.9 and NPYLR7 ag max-min 1.3.
CC(=O)c1ccc(N2CCN(C(=O)CC3(c4ccccc4Cl)CC(=O)N(C)C3=O)CC2)cc1 (stereo not drawn) was read as NPYLR7 ag 9.2 and NPYLR7 ag max-min -2.3.
O=C(NCc1cc(-c2ccco2)on1)c1cnn2c1CCCC2 was read as NPYLR7 ag 1.3 and NPYLR7 ag max-min -2.2.
Screening COC(=O)C1=NN(C(=O)c2cccc(OC)c2)C(C)(O)C1 (stereo not drawn) returned NPYLR7 ag 13.4 and NPYLR7 ag max-min 5.0.
For CCNc1n[nH]c(=S)s1 the results were NPYLR7 ag -3.1 and NPYLR7 ag max-min 0.1.
Screening Cc1nc(C(C)C)cc(N2CCC(C(O)c3nccn3C)CC2)n1 (stereo not drawn) returned NPYLR7 ag 7.9 and NPYLR7 ag max-min -7.1.
Cc1cc(/C=C2\NC(=S)NC2=O)c(C)n1-c1cccc([N+](=O)[O-])c1 was read as NPYLR7 ag -3.9 and NPYLR7 ag max-min 2.2.
N#Cc1c(N)nc(N2CCOCC2)c(C#N)c1C(C#N)Cc1ccccc1 (stereo not drawn) was read as NPYLR7 ag 0.7 and NPYLR7 ag max-min -7.8.
Screening O=C(Nc1ccc(F)c(F)c1F)c1ccc(=O)n(Cc2cccc(Cl)c2)c1 returned NPYLR7 ag 10.8 and NPYLR7 ag max-min 3.6.
For COc1cccc(NC(=O)C2CCCN(C)CC2)c1 (stereo not drawn) the results were NPYLR7 ag 2.9 and NPYLR7 ag max-min 4.1.
CCCn1cc(C(=O)N2CCc3ccccc32)c2nn(-c3ccccc3)c(=O)c-2c1 was read as NPYLR7 ag 5.9 and NPYLR7 ag max-min 4.7.
`COc1cc(-c2nc(Cc3c(F)cccc3Cl)no2)cc(OC)c1OC` gave NPYLR7 ag 3.6 and NPYLR7 ag max-min 0.4.
`OCCC1CN(Cc2cc3ccccc3o2)CCN1Cc1ccsc1` (stereo not drawn) gave NPYLR7 ag 2.0 and NPYLR7 ag max-min -1.9.
`O=C1C2C3C=CC(C2C(=O)N1c1ccc(O)cc1)C1C2C(=O)N(c4ccc(O)cc4)C(=O)C2C31` (stereo not drawn) gave NPYLR7 ag 2.2 and NPYLR7 ag max-min 0.2.
For COC(=O)c1cccc(CN2CCC(n3nc(C)cc3C)C2)n1 (stereo not drawn) the results were NPYLR7 ag 9.4 and NPYLR7 ag max-min 7.3.
For O=C(CN(Cc1ccccc1Cl)S(=O)(=O)c1cccs1)NC1CCCCC1 the results were NPYLR7 ag 0.1 and NPYLR7 ag max-min 0.6.
For CCn1c(C2CCCNC2)nn(Cc2noc(C3CC3)n2)c1=O (stereo not drawn) the results were NPYLR7 ag 1.1 and NPYLR7 ag max-min -1.3.
COC(=O)c1nnn(-c2ccc(C(C)C)cc2)c1C(=O)OC was read as NPYLR7 ag 23.1 and NPYLR7 ag max-min 26.2.
Screening COc1cc(OC)c(C2c3cccn3CCCN2Cc2ccoc2)cc1OC (stereo not drawn) returned NPYLR7 ag 3.7 and NPYLR7 ag max-min 14.2.
`CN(CCc1ccccc1)c1nc(-c2ccc(F)cc2)nc2ccccc12` gave NPYLR7 ag 2.7 and NPYLR7 ag max-min 7.5.
For CCOC(=O)C(Cc1ccccc1)N(Cc1ccc2c(c1)OCCO2)C(=O)C1CCN(C(=O)OC(C)(C)C)CC1 (stereo not drawn) the results were NPYLR7 ag -17.3 and NPYLR7 ag max-min -24.9.
`Cc1nn2c(SCC(N)=O)cc(C(C)(C)C)nc2c1-c1ccccc1` gave NPYLR7 ag 0.3 and NPYLR7 ag max-min -2.2.
For COc1ccc2oc(=Nc3cccc(F)c3)c(-c3nc4ccccc4[nH]3)cc2c1 the results were NPYLR7 ag -5.0 and NPYLR7 ag max-min -9.5.
C=CCOCC(O)CN(Cc1ccc(OC)cc1)CC1CCCO1 (stereo not drawn) was read as NPYLR7 ag 10.6 and NPYLR7 ag max-min 10.7.
For CCn1c(C2CCN(C(=O)c3cccc4[nH]c(C)nc34)CC2)nn(C)c1=O the results were NPYLR7 ag -1.0 and NPYLR7 ag max-min -5.4.
CC(=O)NC(C(=O)N(C)Cc1cccc(Cl)c1Cl)C(C)C (stereo not drawn) was read as NPYLR7 ag -7.7 and NPYLR7 ag max-min -8.1.
For O=C(CCOc1ccccc1)Nc1ccnn1C1CCN(C(=O)C2=CCCCC2)CC1 the results were NPYLR7 ag 11.4 and NPYLR7 ag max-min 2.7.
CC(C)(O)C#Cc1ccc(CN2CCCC(CNC(=O)c3cccnc3)C2)s1 (stereo not drawn) was read as NPYLR7 ag 2.9 and NPYLR7 ag max-min 2.1.
Screening CCCCN(C(=O)c1cc(C#N)cs1)C(C)CC (stereo not drawn) returned NPYLR7 ag -1.6 and NPYLR7 ag max-min -2.7.
For O=C(O)c1cccnc1CN1CCC(C(O)Cc2ccccc2)CC1 (stereo not drawn) the results were NPYLR7 ag 14.8 and NPYLR7 ag max-min 11.9.
Screening CCOc1ccc(-n2ccn3c(CC(C)CC(=O)NCc4ccc(C)cc4)nnc3c2=O)cc1 (stereo not drawn) returned NPYLR7 ag -21.6 and NPYLR7 ag max-min -23.6.
Screening CC(C)CN1CCNC(=O)C1CC(=O)N(C)Cc1cccc2cccnc12 (stereo not drawn) returned NPYLR7 ag 3.6 and NPYLR7 ag max-min 1.0.
Screening Cc1ccc(-n2nc(C(=O)O)c3c2CCCC3)cc1F returned NPYLR7 ag 0.8 and NPYLR7 ag max-min -2.3.
`CCN(Cn1nc(Nc2c(C)cc(C)cc2Cl)sc1=S)C1CCS(=O)(=O)C1` (stereo not drawn) gave NPYLR7 ag 2.5 and NPYLR7 ag max-min -3.7.
`CC(C)CNC(=O)c1ccc(NC(=O)N(C)CC(C)C)cc1Cl` gave NPYLR7 ag 2.0 and NPYLR7 ag max-min 0.1.
For COC(=O)c1c(C)oc2ccc(OCc3ccccc3)cc12 the results were NPYLR7 ag 3.5 and NPYLR7 ag max-min -1.3.
CN(C)c1nc2c(c(=O)[nH]1)CCN(C(=O)c1scc3c1OCCO3)C2 was read as NPYLR7 ag -1.6 and NPYLR7 ag max-min -3.6.
For O=S1(=O)NC(=NC2CCc3ccccc32)c2ccccc21 (stereo not drawn) the results were NPYLR7 ag 6.8 and NPYLR7 ag max-min 2.7.
`OCC(CNc1ncnc2cc(Cl)ccc12)Cc1ccco1` (stereo not drawn) gave NPYLR7 ag 5.9 and NPYLR7 ag max-min 2.0.
For CCOc1ccc(-n2c(-c3ccccc3)cc(C(=O)N3CCN(c4ccccc4OC)CC3)c2C)cc1 the results were NPYLR7 ag -5.6 and NPYLR7 ag max-min 3.0.
`COc1coc(C(=O)N2CCN(c3cccc(C(F)(F)F)c3)CC2)cc1=O` gave NPYLR7 ag 12.6 and NPYLR7 ag max-min 4.0.
Cc1nc(-c2ccccc2)ccc1C(=O)N(C)c1cn[nH]c1 was read as NPYLR7 ag 3.0 and NPYLR7 ag max-min 2.0.
CC1(C)CC(=O)C2CC3=C(CC(C)(C)CC3=O)N=C2C1 (stereo not drawn) was read as NPYLR7 ag 7.8 and NPYLR7 ag max-min 6.1.
COc1cccc(CN(C)c2ccc3c(-c4ccccc4OC)noc3n2)c1 was read as NPYLR7 ag 0.4 and NPYLR7 ag max-min -3.8.
For O=S1(=O)CCC(Nc2ncc(F)c(N3CCOCC3)n2)C1 (stereo not drawn) the results were NPYLR7 ag 2.6 and NPYLR7 ag max-min 2.1.
Screening CN(Cc1cc(-c2ccccc2)no1)Cc1cnc(N2CCCC2)s1 returned NPYLR7 ag -5.1 and NPYLR7 ag max-min -13.7.
`O=[N+]([O-])c1cccc(CN2CCCn3cccc3C2c2ccsc2)c1` (stereo not drawn) gave NPYLR7 ag 30.4 and NPYLR7 ag max-min 29.4.

10 structures out of the list, arranged by length of the SMILES, descending.
`CCN(Cn1nc(Nc2c(C)cc(C)cc2Cl)sc1=S)C1CCS(=O)(=O)C1` (stereo not drawn) gave NPYLR7 ag 2.5 and NPYLR7 ag max-min -3.7.
CN(C)c1nc2c(c(=O)[nH]1)CCN(C(=O)c1scc3c1OCCO3)C2 was read as NPYLR7 ag -1.6 and NPYLR7 ag max-min -3.6.
`O=[N+]([O-])c1cccc(CN2CCCn3cccc3C2c2ccsc2)c1` (stereo not drawn) gave NPYLR7 ag 30.4 and NPYLR7 ag max-min 29.4.
COc1cccc(CN(C)c2ccc3c(-c4ccccc4OC)noc3n2)c1 was read as NPYLR7 ag 0.4 and NPYLR7 ag max-min -3.8.
Screening CN(Cc1cc(-c2ccccc2)no1)Cc1cnc(N2CCCC2)s1 returned NPYLR7 ag -5.1 and NPYLR7 ag max-min -13.7.
Cc1nc(-c2ccccc2)ccc1C(=O)N(C)c1cn[nH]c1 was read as NPYLR7 ag 3.0 and NPYLR7 ag max-min 2.0.
For O=S1(=O)CCC(Nc2ncc(F)c(N3CCOCC3)n2)C1 (stereo not drawn) the results were NPYLR7 ag 2.6 and NPYLR7 ag max-min 2.1.
For O=S1(=O)NC(=NC2CCc3ccccc32)c2ccccc21 (stereo not drawn) the results were NPYLR7 ag 6.8 and NPYLR7 ag max-min 2.7.
For COC(=O)c1c(C)oc2ccc(OCc3ccccc3)cc12 the results were NPYLR7 ag 3.5 and NPYLR7 ag max-min -1.3.
`OCC(CNc1ncnc2cc(Cl)ccc12)Cc1ccco1` (stereo not drawn) gave NPYLR7 ag 5.9 and NPYLR7 ag max-min 2.0.

(listing goes on)
Screening COCCCN(CC(=O)O)S(=O)(=O)c1cccc(Cl)c1 returned NPYLR7 ag -0.4 and NPYLR7 ag max-min -2.3.
`CCC(C)(C)C1CCC(NC(=O)c2cccc(-n3cnnn3)c2)CC1` (stereo not drawn) gave NPYLR7 ag 0.1 and NPYLR7 ag max-min -0.9.
Screening COc1ccc(-c2nc3cc(C)ccn3c2NC(=O)CCc2ccccc2)cc1 returned NPYLR7 ag -6.6 and NPYLR7 ag max-min -3.6.
COc1ccccc1NC(=O)CSc1ncnc2sc3c(c12)CCC3 was read as NPYLR7 ag -1.3 and NPYLR7 ag max-min -7.0.
For CCn1c(SCC(=O)Nc2ccc(F)cc2)nc2c(-c3ccccc3)c[nH]c2c1=O the results were NPYLR7 ag 1.1 and NPYLR7 ag max-min -3.3.
For COC(=O)c1ccc(Cn2cnc3ccc(OC)cc3c2=O)cc1 the results were NPYLR7 ag 29.0 and NPYLR7 ag max-min 12.9.
Screening O=C(CCCn1cc([N+](=O)[O-])cn1)NC1CCCCCC1 returned NPYLR7 ag -3.6 and NPYLR7 ag max-min -5.9.
O=C(NCCC(=O)N1CCC(C(=O)N2CCCCC2)CC1)Nc1ccccc1OC(F)F was read as NPYLR7 ag 35.8 and NPYLR7 ag max-min 39.2.
`CC1(C)CC23C(=O)CCC(O)C2(C)CCC13` (stereo not drawn) gave NPYLR7 ag -3.2 and NPYLR7 ag max-min -8.5.
Screening O=C(CCSc1ccccc1)N(Cc1cccnc1)c1nc2cc3c(cc2s1)OCCO3 returned NPYLR7 ag -17.0 and NPYLR7 ag max-min -12.4.
For c1ccc(Oc2ccc(-c3cc(N4CCN(Cc5cccnc5)CC4)n4nccc4n3)cc2)cc1 the results were NPYLR7 ag -4.6 and NPYLR7 ag max-min -6.0.
CCC(C)NC(=O)C1CCCN1C(=O)c1cc(Cl)ccc1Cl (stereo not drawn) was read as NPYLR7 ag -29.3 and NPYLR7 ag max-min -28.5.
O=C(c1cn(Cc2ccc(F)cc2Cl)nn1)N1CCCCC1c1nccs1 (stereo not drawn) was read as NPYLR7 ag -1.7 and NPYLR7 ag max-min -3.8.
Screening CCCCCN(C(=O)Nc1c(C(C)C)cccc1C(C)C)C(C)c1nc2ccccc2c(=O)n1-c1ccccc1C (stereo not drawn) returned NPYLR7 ag 24.2 and NPYLR7 ag max-min 25.5.
`COc1ccc(CCN2C(=O)N(C)C(=O)C23CCN(Cc2ccc(C#CC(C)(C)O)cc2)CC3)cc1` gave NPYLR7 ag 1.0 and NPYLR7 ag max-min -8.5.

Screening data: PubChem, Fisher Drug Discovery Resource Center

An excerpt; rates above refer to the full screens.
